# Bst PK mod: modulators of Bacillus stearothermophilus pyruvate kinase; Potency, µM; partly purified Bacillus stearothermophilus pyruvate kinase, luminescence ATP production; ribose 5-phosphate activator present at AC10; 51,000 tested, 1.2% active; AID 361; in the data active means potency below about 11 µM; inconclusive means mostly about 12 µM to 25 µM; inactive means weaker than that;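 the screen sought inhibitors and activators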;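 note: potency is the fitted concentration of half-maximal effect; scaled between full activation by ribose 5 phosphate and full inhibition by luteolin; about four in five hits inhibit and the cells do not say which; series up to 57 µM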
# TsaE inh: YjeE (TsaE) inhibition, E. coli | purified YjeE, fluorescence polarisation of a bound ADP probe | Potency, µM | 71,000 tested, 0.05% active; active = well fitted falling curve; inconclusive = weaker or top-dose-only fall, or a rising curve; inactive = flat or poorly fitted curve;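 note: top concentration of the series not given in the record; excess ADP was the control for the full effect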
#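 Fluorescence polarization of a BODIPY Texas Red–ADP probe (2 uM) bound to purified YjeE (10 uM) was read after 15 min room-temperature incubation with compounds. Loss of polarization marks inhibitors; ADP serves as titrated control.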
# Starred values were filed as active, the others as inactive; i = inactive; ? = inconclusive; . = not tested or not shown.
compound	Bst PK mod	TsaE inh
COc1cccc(OCCOc2cccc(/C=N/n3cnnc3)c2)c1	.	i
CCOC(=O)Nc1c(C(=O)OC)[nH]c2cccc(OC)c12	>57	i
CO[C@]1(NC(=O)C2SC(=C(C(N)=O)C(=O)O)S2)C(=O)N2C(C(=O)O)=C(CSc3nnnn3C)CS[C@H]21 (some centres undefined)	.	i
Cc1[nH]nc2c1-c1nc3ccccc3nc1C(C)(C)C2	>57	i
Cc1ccc(C)n1-n1cnc2sc3c(c2c1=O)CCC3	>57	i
Cc1nn2c(N)csc2nc1=O	>57	i
COC(=O)c1cc(C(=O)OC)n(Cc2ccc(F)cc2)n1	>57	i
COCCn1c(=O)c(-c2cccc(C#N)c2)nc2cnc(OC)nc21	.	i
CCCCNC(=O)c1sc2nc(C)cc(COC)c2c1-n1cccc1	>57	i
CC(C)CNC(=O)CSc1nnc(-c2ccccn2)n1Cc1ccccc1	>57	i
CCC(=O)Oc1cccc(C(=O)Nc2ccc(-c3nnc(-c4ccco4)o3)cc2)c1	.	i
Nc1ccc(SCCN2C(=O)c3ccccc3C2=O)cc1	>57	i
CCS(=O)(=O)CCSc1nc2ccccc2s1	?	i
CCCOc1cccc(C2/C(=C(/O)c3ccc(F)cc3)C(=O)C(=O)N2CCN(C)C)c1 (centres undefined)	>26	.
c1cc(-c2nnc3n2CCCCC3)ccn1	>57	i
Cn1c(=O)c(-c2ccc(Cl)cc2)nc2cncnc21	.	i
CC(C)CC(=O)Nc1ccccc1-c1nnn(CC(=O)N2CCOCC2)n1	>57	i
NC(=O)CN1CCN(C(=O)Nc2ccccc2)CC1	.	i
O=c1c(-c2cccs2)nc2cnc(Oc3ccccc3)nc2n1Cc1cccs1	.	i
Cc1noc(C)c1COC(=O)c1ccccc1Sc1ccccc1C#N	>57	i
NC(=O)c1c(NC(NC(=O)c2ccco2)(C(F)(F)F)C(F)(F)F)sc2c1CCCC2	>11	i
Cc1c(O)c(=O)n(-c2ccccc2)n1C	.	i
Cc1ccccc1-n1c(=O)cc(N2CCc3ccccc3C2)[nH]c1=O	>57	i
Cc1ccccc1N=C1Nc2ccccc2CS1	.	i
CC(C)Oc1cccc(C(=O)O)c1	>57	i
CS(=O)(=O)N1CCN(c2nc(-c3ccc(F)cc3)cs2)CC1	.	i
CCOC(=O)c1cnc2sccn2c1=O	>57	i
COC(=O)C1=C(C)N(C)C(=O)NC1c1ccc(O)c(OC)c1 (centres undefined)	.	i
O=c1c2ccccc2nc(SCc2nnc(-c3ccccc3)o2)n1-c1ccccc1	.	i
CNC(=O)CSc1nnnn1-c1ccc(C)cc1C	>57	i
Cc1ccc(S(=O)(=O)N(CC(=O)N2CCOCC2)CC(=O)N2CCOCC2)cc1	>57	i
CC1CN(S(=O)(=O)c2ccc(NC(=O)c3ccco3)cc2)CC(C)O1 (centres undefined)	>57	i
COCCn1c(C)cc(C(=O)COc2nc3ccccc3nc2C)c1C	>57	i
Cc1nc2ccccc2c2c1C(=O)N(CCC1=CCCCC1)C2=O	>57	i
Cc1c(C(=O)NCc2ccccn2)oc2ccccc12	>57	i
Cc1cc(NC(=O)c2cccc(S(=O)(=O)N3CCCCCC3)c2)n(-c2ccccn2)n1	>57	i
COc1ccc(NC(=O)Cc2nc3ccccc3[nH]2)cc1	.	i
CCCOC(=O)c1ccc(Nc2cc(C)nc3ncnn23)cc1	11*	i
Cc1ccc(-c2nc(CS(=O)CC(=O)NCc3ccccn3)c(C)o2)cc1 (centres undefined)	.	i
Cc1cc(Nc2ccccc2F)n2nc(C)nc2n1	.	i
O=C(Nc1ccc(F)cc1)N1CCn2c(nc3ccccc32)C1	>57	i
O=C(NC1CCS(=O)(=O)C1)C1CCCCN1S(=O)(=O)c1ccc(Cl)cc1 (centres undefined)	>57	i
Cc1ccc(S(=O)(=O)N2CCCC2C(=O)OCc2nc3ccccc3s2)cc1 (centres undefined)	?	i
COc1ccccc1CCNC(=O)C1CCCO1 (centres undefined)	>57	i
CCn1c(COc2cccc(OC)c2)nnc1SCC(=O)N1CCOCC1	>57	i
Cc1nnc(NC(=O)c2ccc3ccccc3c2)o1	>57	i
O=C(C1=C(O)C(=O)N(CCCN2CCOCC2)C1c1ccccn1)c1cccs1 (centres undefined)	>26	.
NC(=O)C1(N2CCCCC2)CCN(C(=O)c2cccs2)CC1	.	i
CCSc1nc(-c2ccc(OC)cc2)ccc1C#N	.	i
Cn1c(=O)n(C)c2cc(NC(=O)C(F)(F)F)ccc21	.	i
CN(C)c1ccc(-c2nn3c(-c4ccc(Cl)cc4)nnc3s2)cc1	>26	.
O=C(CSc1nc2ccncc2[nH]1)Nc1ccccc1C(F)(F)F	>57	i
Cc1ccc(Cl)cc1N1CCN(C(=O)c2cn(C)c(=O)c3c2c2ccccc2n3C)CC1	>57	i
O=C(Nc1ccccc1)N1CC2(CCN(C(=O)c3ccncc3)CC2)C1	.	i
Cc1cc(NC(=O)c2cc(-c3ccncc3)nc3c(C)cccc23)no1	>57	i
COc1ccc(C2=NOC(C(=O)NCc3ccccc3)C2)cc1 (centres undefined)	>57	i
COCCCNC(=O)C(F)(F)C(F)(F)C(=O)NCCCOC	.	i
CCOC(=O)CNC(=O)C1c2cc(OC)c(OC)cc2C(=O)N(C)C1c1ccccc1F (centres undefined)	>57	i
CCC(=O)c1cn(CC(=O)NCc2cccnc2)c2ccccc12	>57	i
CCCn1c(NC(=O)c2cccc(S(=O)(=O)N3CCCC3)c2)nc2ccccc21	>57	i

# Next structures
compound	Bst PK mod	TsaE inh
O=C(CSc1nnc(NC(=O)C2CC2)s1)Nc1ccc(F)cc1	>57	i
C=CCn1c(COc2ccc(Cl)cc2)nnc1SCc1ccc(C#N)cc1	>57	i
C=CCN=C(NC#N)SCC(=O)NCc1ccccc1	>57	i
CC1CCN(C(=O)N[C@@H](Cc2ccccc2)C(=O)O)CC1	>57	i
CCC(C)(C)n1nnnc1C(C(C)C)N(CCCO)Cc1cc2cc(C)ccc2[nH]c1=O (centres undefined)	>57	i
N#Cc1ccccc1CSc1ccccn1	>57	i
Cc1cc(C)n(-c2ccc(C(=O)Nc3ccccc3N3CCOCC3)cc2)n1	>57	i
CC1CCN(CC(=O)Nc2sc3c(c2C#N)CCC3)CC1	>57	i
Cc1ccc(-c2cc3nc(C)cc(NCc4ccco4)n3n2)cc1	6.5*	i
COCCNc1ncnc2ccc(-c3ccc(N(C)C)cc3)cc12	.	i
Cc1cc(C)c(S(=O)(=O)Nc2cccc3nsnc23)c(C)c1	.	i
CCn1c(=O)c(=O)n(CC)c2cc(S(=O)(=O)Nc3cccc(OC)c3)ccc21	>57	i

# By substructure: the entries above with a CF3 group
compound	Bst PK mod	TsaE inh
NC(=O)c1c(NC(NC(=O)c2ccco2)(C(F)(F)F)C(F)(F)F)sc2c1CCCC2	>11	i
Cn1c(=O)n(C)c2cc(NC(=O)C(F)(F)F)ccc21	.	i
O=C(CSc1nc2ccncc2[nH]1)Nc1ccccc1C(F)(F)F	>57	i

# (list continues)
compound	Bst PK mod	TsaE inh
Cc1ccc(C(=O)CCNc2ccc(Br)cc2)o1	>57	i
COc1cc(N=c2ssnc2Cl)cc(OC)c1OC	>57	?
CCc1ccc2c(c1)[C@]1(C(=O)N2)[C@@H]2C(=O)N(Cc3ccccc3)C(=O)[C@@H]2[C@@H]2CCCN21	>57	i
Cc1cc(=O)c2ccccc2[nH]1	>57	i
CC(C)(C)c1cc(-c2ccco2)c(C#N)c(SCC#N)n1	>26	.
CCCC1(C(=O)O)NC(c2cccc(OC)c2O)C2C(=O)N(c3ccccc3)C(=O)C21 (centres undefined)	.	i
CC1CCN(c2nc(-c3ccncc3)nc3ccccc23)CC1	.	i
O=C(CNCC1CCCO1)Nc1ccccc1-n1cccc1 (centres undefined)	>57	i
COC(=O)C1=C(C)OC(N)=C(C#N)C1c1ccccc1F (centres undefined)	.	i
Cn1c(=O)oc2cc(S(=O)(=O)N3CCN(Cc4ccc5c(c4)OCO5)CC3)ccc21	>57	i
N#Cc1nc(-c2ccco2)oc1N1CCN(c2ccccc2)CC1	.	i
COC(=O)CCC(=O)Nc1sc2c(c1C#N)CCCC2	.	i
CC(C)(C)C1CCc2onc(C(=O)Nc3cccnc3)c2C1 (centres undefined)	.	i
COc1ccccc1OCCn1cc(C(=O)c2ccco2)c2ccccc21	>57	i
O=C1Cn2c(nc3ccccc32)N1c1ccccc1F	>57	i
Cc1ccc(C(=O)CS(C)(=O)=O)cc1	>57	i
COc1ccc(-c2nc(SC)n(C)c(=O)c2C#N)cc1OC	.	i
Cc1cc(OCc2nn[nH]n2)c2c(C)c(Cc3ccccc3)c(=O)oc2c1	>57	i
CCN(CC)Cc1cc(CC(C(N)=O)C(N)=O)ccc1OC	>57	i
Cc1nc2ccccc2cc1C(=O)NCc1ccco1	>57	i
O=C(Cc1coc2ccc3ccccc3c12)N1CCCC1	?	i
CC(=O)c1ccc(NC(=O)CSc2nnc(-c3ccoc3C)n2Cc2ccccc2)cc1	.	i
CC(C)OCCCn1c(=S)[nH]c2ncccc2c1=O	>57	i
Cc1ccc(C(=O)C2CCN(CC(=O)Nc3ccc(N(C)C)cc3)CC2)cc1	>57	i
Cc1ccccc1NC(=O)CSc1nc(N)c(C#N)c(-c2cccs2)c1C#N	>57	i
Cc1ccc(S(=O)(=O)N(C)CC(=O)Nc2nc3ccccc3s2)cc1	>57	i
CCCn1c(-c2ccc(F)cc2)nc2c(NCCCCN3CCCC3)nc(C)nc21	.	i
COc1ccc(-n2nnnc2SCC(=O)NCCc2ccc(OC)c(OC)c2)cc1	>57	i
COC(=O)c1cccc(NC(=O)CN(c2ccc3c(c2)OCO3)S(C)(=O)=O)c1C	>57	i
CC(C)n1c(SCC(=O)N2CCCc3ccccc32)nc2c1c(=O)n(C)c(=O)n2C	>57	i
CCOC(=O)N1CCC(NC(=O)Cc2ccc(-n3c(=O)[nH]c4ccccc4c3=O)cc2)CC1	>57	i
CN(C)c1ncc2nc(-c3cc(F)cc(F)c3)c(=O)n(CCC#N)c2n1	.	i
CCCCn1c(CCCNC(=O)CC)nc2ccccc21	.	i
COc1ccc(C2CC(C(F)(F)F)n3ncc(C(=O)NCC4CCCO4)c3N2)cc1OC (centres undefined)	>11	.
CCOC(=O)C1CCCN(CC(=O)Nc2c(F)c(F)c(F)c(F)c2F)C1 (centres undefined)	>57	i
Cn1c(=O)c2c(nc(NCc3ccc4c(c3)OCO4)n2Cc2ccccc2)n(C)c1=O	>26	.
C/C=C(\C)CN1CCN(c2cc(C)ccc2C)CC1	.	i
Nn1c(SC/C=C/c2ccccc2)nnc1-c1ccccn1	>57	i
O=C1OC(Nc2ccc(Br)cc2F)c2ccccc21 (centres undefined)	>26	.
O=c1c2ccccc2nc(CSc2nnnn2-c2ccccc2)n1-c1ccccc1	.	i
COc1ccc(Cn2c(=O)c3c(nc(NCCO)n3C)n(C)c2=O)cc1	>11	.
COCCCn1c(Cc2ccccc2)nnc1SCC(=O)N1CCCCC1	>57	i
CC1(C)Oc2ccc(C(=O)N3CCOCC3)cc2N(CC(=O)Nc2ccccc2)C1=O	>57	i
O=C(c1cc2ccccc2oc1=O)N1CCSC1c1ccco1 (centres undefined)	>57	i
CNC(=O)c1c(NC(=O)c2nc3ccccc3s2)sc2c1CCC2	.	i
O=C1NC2(CCCc3ccccc32)C(=O)N1Cc1nnc(-c2ccccc2Br)o1 (centres undefined)	>57	i
Cc1csc(NC(=O)CSc2nc3sc(C)c(C)c3c(=O)[nH]2)n1	>57	i
O=C(c1ccc(CS(=O)(=O)c2ccc(Br)cc2)o1)N1CCOCC1	.	i
Clc1cccc(Cl)c1C(Nc1nncs1)Nc1nncs1	.	i
O=C(NCCN1CCc2ccccc2C1)C1CCN(S(=O)(=O)N2CCC3(CC2)OCCO3)CC1	>57	i
COc1cccc(NC(=O)c2ncn[nH]2)c1	>57	i
Cc1ccc(NC(=O)c2ocnc2C)cc1Cl	.	i
COc1ccccc1NC(=O)CSc1nc2ncccc2[nH]1	.	i
O=C(OC(C(=O)NC1CCCC1)c1ccc(F)cc1)c1ccno1 (centres undefined)	>57	i
CCOc1ccccc1NC(=O)Cn1nnc(C(=O)NCc2ccco2)c1N	>57	i
Cn1cnnc1SCC(=O)c1cc2ccccc2oc1=O	>57	i
COc1cc(C(c2nnnn2C2CCCC2)N2CCc3ccccc3C2)ccc1O (centres undefined)	>57	i
Cc1nc(NCCCO)c(C#N)c2c1COC(C)(C)C2	>26	.
O=C(Nc1cccc(-c2nnn(CC(=O)N3CCc4ccccc4C3)n2)c1)C1CCC1	>57	i
CCn1c(SCC(=O)c2cc(C)n(-c3ccc(C(=O)OC)cc3)c2C)nnc1-c1cccnc1	>57	i
CCOc1ccc(Br)cc1S(=O)(=O)N1CC(C)OC(C)C1 (centres undefined)	>57	i
COC(=O)c1ccccc1NC(=O)Cn1cnc2c1c(=O)n(C)c(=O)n2C	>57	i

# Screening data deposited in PubChem BioAssay by National Center for Advancing Translational Sciences (NCATS).

# This is a subset; count on the stated rates, not on these rows.
